A1 inh: caspase 3/7 activation in MEF A1-2A-BIM cells, primary screen, A1 inhibitor project, cell-based, luminescence, HTS. Caspase-Glo 3/7 luminescence, 3 h; percent of clofoctol response, vehicle zero. caspase activation, % (no concentration beside the values). actives 0.066% (n = 330,000);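 active means over half of replicate activation scores above 10%, or exactly half above 10 with the replicate mean above 10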;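 further: wells of about 30 µL received 50 nL stock; many hits fall short of the cut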
Calb FLC: C. albicans growth inhibition with fluconazole, primary screen, CaCi-2 strain, Alamar Blue fluorescence | C. albicans CaCi-2 (fluconazole-resistant clinical isolate) + fluconazole, 48 h | growth inhibition, % (concentration not given with the values) | actives 0.57% (n = 300,000);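 active means most replicates above 75%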;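 further: all wells also contain fluconazole at 8 µg/ml as a sub-toxic cotreatment; 0% = median of DMSO wells and 100% = median of geldanamycin control wells; wells of about 8 µL received 7.5 nL stock; the first replicate is given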
UCH37 inh: inhibitors of human UCH37 deubiquitinase, primary screen, biochemical, Ub-AMC cleavage, fluorescence | purified proteasome/UCH37 | inhibition, % (no concentration beside the values) | actives 0.33% (n = 330,000) | AID 588478, 2011;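 active means mean of two replicates above 20%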;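 further: 0% = compound-free wells with enzyme and 100% = wells lacking proteasome; stock transfer was 100 nL into about 20 µL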
Target sequence (Q9Y5K5 whole entry, looked up): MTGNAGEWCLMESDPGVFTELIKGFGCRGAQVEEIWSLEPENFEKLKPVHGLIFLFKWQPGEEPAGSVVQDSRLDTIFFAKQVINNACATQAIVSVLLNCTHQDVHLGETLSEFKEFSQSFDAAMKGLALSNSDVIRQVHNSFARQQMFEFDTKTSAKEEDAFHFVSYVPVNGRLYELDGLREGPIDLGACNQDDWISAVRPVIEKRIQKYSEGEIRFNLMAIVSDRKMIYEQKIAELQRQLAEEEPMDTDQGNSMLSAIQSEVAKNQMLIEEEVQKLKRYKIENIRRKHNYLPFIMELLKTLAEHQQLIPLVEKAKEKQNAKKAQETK
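Reagent: Ub-AMC substrate; assay system: Proteasome-associated human UCH37 deubiquitinase; controls: no-proteasome and no-compound wells; read-out: % inhibition of Ub-AMC cleavage fluorescence; timing: 30 min preincubation with enzyme, 25 min cleavage at room temperature; signal: AMC fluorescence from Ub-AMC cleavage, excitation 355 nm, emission 460 nm; buffer or medium: Tris-HCl pH 7.4 plus ovalbumin, ATP-MgCl2, DTT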
LANA-H2B inh: blockers of LANA interaction with H2A/H2B – biochemical, FP readout, HTS, primary screen; actives 0.6% (n = 320,000); AID 2629, 2010; Protein LANA1 (Human herpesvirus 8 type P (isolate GK18)), Q9QR71; inhibition, % (no concentration beside the values); cell-free LANA-H2A/H2B peptide, fluorescence polarization; in the data active means inhibition mostly above about 10%, no sharp cut-off; inactive means mostly below about 6.7%;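 further: stock transfer was 7.5 nL into about 10 µL; 0% = median of vehicle wells and 100% = median of positive control wells; one replicate is shown; the record names a cut of 25% in any replicate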
Beta2AR agonist: beta2AR agonists driving receptor internalization, primary screen, cell-based, FAP fluorogen, flow cytometry; response, % (test concentration not listed); actives 0.43% (n = 340,000); Am2.2-beta2AR cells; reference of the scale not given here;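 active means response above a set limit, near 3 SD of response in nonfluorescent compounds, cut at about 42% in these data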;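 further: stock transfer was 100 nL into about 11 µL; a reference agonist was the positive control; negative values mostly stem from fluorescent compounds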
Target sequence (P07550 whole entry, looked up): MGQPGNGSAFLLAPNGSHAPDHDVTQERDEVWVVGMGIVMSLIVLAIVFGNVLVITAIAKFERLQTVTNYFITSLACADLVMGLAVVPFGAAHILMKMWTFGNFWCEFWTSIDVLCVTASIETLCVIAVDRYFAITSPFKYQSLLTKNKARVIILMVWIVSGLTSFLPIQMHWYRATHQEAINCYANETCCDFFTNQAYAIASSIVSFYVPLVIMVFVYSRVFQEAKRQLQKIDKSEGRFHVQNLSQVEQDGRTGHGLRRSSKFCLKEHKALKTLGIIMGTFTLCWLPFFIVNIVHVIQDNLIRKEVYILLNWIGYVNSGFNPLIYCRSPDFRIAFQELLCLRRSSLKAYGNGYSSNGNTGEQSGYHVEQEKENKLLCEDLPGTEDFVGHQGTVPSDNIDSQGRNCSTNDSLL
Beta cell apopt: inhibitors of cytokine-induced beta cell apoptosis, primary screen, luminescence; actives 0.8% (n = 300,000); INS-1E cytokine-induced death, ATP luminescence, 48 h; percent of positive-control rescue, neutral wells zero; protection from apoptosis, % (no concentration beside the values);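 active means all replicates at 75% or more, or half of them and the mean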;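 further: 0% = cytokine-treated negative control wells and 100% = positive control rescue; higher means more ATP so stronger rescue from cytokine killing; wells of about 40 µL received 100 nL stock; the first replicate is given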
T cruzi inh: inhibitors of intracellular T. cruzi growth, primary screen, luminescence, NIH3T3 host cells | T. cruzi beta-gal in NIH3T3, 90 h | inhibition, % (concentration not given with the values) | actives 1.4% (n = 300,000) | AID 1885, 2009;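 active means mean inhibition across valid replicates above about 55%, limit read from the data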;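 further: signal also drops with host cell toxicity which is not excluded here; 0% = plate median of DMSO wells and 100% = zero luminescence signal; higher percent means less beta-gal luminescence so fewer parasites; stock transfer was 50 nL into about 50 µL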
RanGTP-Imp inh: inhibitors of RanGTP-importin-beta interaction, primary screen, biochemical, FRET, CFP-Ran, YFP-importin-beta, homogeneous; Ran GTPase (GTP-bound) - importin-beta complex; cell-free CFP-Ran/YFP-importin-beta FRET ratio; inhibition, % (test concentration not listed); actives 1.1% (n = 300,000);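 active means most replicates above 15%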;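 further: 0% = DMSO wells and 100% = Ran loaded with GDP instead of GTP; wells of about 40 µL received 100 nL stock; the first replicate is given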
Active calls of the source: *.

Cc1cc(SCC(=O)Nc2cccc(S(=O)(=O)N3CCOCC3)c2)nc2ccccc12 was read as A1 inh -0.6, Calb FLC -17, UCH37 inh 5.4, LANA-H2B inh 2.0, Beta2AR agonist -5, Beta cell apopt 6, T cruzi inh 5 and RanGTP-Imp inh 0.0.
`CCOC(=O)/C(CCC[N+](C)(CC)CC)=N\O` gave A1 inh 0.5, Calb FLC -12, LANA-H2B inh -3.7, Beta2AR agonist 5, Beta cell apopt 3, T cruzi inh -8 and RanGTP-Imp inh -1.2.
COC(=O)C1=C(C)N=c2s/c(=C/c3ccoc3)c(=O)n2C1c1ccccc1 (stereo unspecified) was read as A1 inh 0.0, Calb FLC 10, LANA-H2B inh -0.6, Beta2AR agonist -127, Beta cell apopt 4, T cruzi inh 16 and RanGTP-Imp inh 0.6.
Screening CCOC(=O)c1cnc(-n2nc(C)cc2C)nc1Nc1ccc(O)cc1 returned A1 inh -1.2, Calb FLC -3, UCH37 inh 1.8, LANA-H2B inh 5.2, Beta2AR agonist -18, Beta cell apopt 119*, T cruzi inh 4 and RanGTP-Imp inh -4.4.
`O=C(CSc1nc2c(c(=O)n1-c1ccc(F)cc1)SCC2)Nc1ccc2c(c1)OCO2` gave A1 inh 0.8, Calb FLC 4, UCH37 inh 5.5, LANA-H2B inh 1.3, Beta2AR agonist -3, Beta cell apopt 4, T cruzi inh 15 and RanGTP-Imp inh -2.3.
CCOC(=O)CSc1nc2c(cnn2-c2ccc(F)cc2)c(=O)[nH]1 was read as A1 inh -0.1, Calb FLC 1, UCH37 inh 3.1, LANA-H2B inh -1.1, Beta2AR agonist -146, Beta cell apopt -7, T cruzi inh -13 and RanGTP-Imp inh 1.0.
Screening Cc1ccc(-c2csc(NC(=O)c3cccc(S(=O)(=O)N4CCN(C)CC4)c3)n2)cc1 returned A1 inh 0.9, Calb FLC 24, UCH37 inh -3.6, LANA-H2B inh -1.6, Beta2AR agonist 9, Beta cell apopt 4, T cruzi inh 19 and RanGTP-Imp inh 8.1.
COc1ccc(C(=O)CC2SC(N)=NC2=O)cc1 (stereo unspecified) was read as A1 inh -0.3, Calb FLC 2, UCH37 inh 3.6, LANA-H2B inh -0.9, Beta2AR agonist -4, Beta cell apopt -4, T cruzi inh -22 and RanGTP-Imp inh 4.2.
Screening CCCS(=O)(=O)N1CCC(C(=O)c2cccc(C(F)(F)F)c2)CC1 returned A1 inh 0.4, Calb FLC -26, UCH37 inh -1.3, LANA-H2B inh -4.7, Beta2AR agonist 4, Beta cell apopt -3, T cruzi inh -1 and RanGTP-Imp inh 1.5.
`COC(=O)Cc1ccc(Oc2ncc(C(F)(F)F)cc2Cl)cc1` gave A1 inh 0.2, Calb FLC 1, UCH37 inh 1.1, LANA-H2B inh 7.1, Beta2AR agonist -1, Beta cell apopt -5, T cruzi inh -2 and RanGTP-Imp inh 106*.
`O=C(COc1coc(CN2CCc3ccccc3C2)cc1=O)Nc1ccccc1F` gave A1 inh -0.4, Calb FLC -5, UCH37 inh 2.2, LANA-H2B inh 2.7, Beta2AR agonist 2, T cruzi inh 12 and RanGTP-Imp inh 5.0.
For CCCn1c(SCC(=O)NCc2ccc(F)cc2)n[nH]c1=O the results were A1 inh 0.4, Calb FLC -9, UCH37 inh -0.3, LANA-H2B inh 3.7, Beta2AR agonist -1, Beta cell apopt -6, T cruzi inh -1 and RanGTP-Imp inh -0.7.
Screening CCCCN(CC)S(=O)(=O)N1CCC(C(=O)NCc2ccc(F)cc2)CC1 returned A1 inh 0.1, Calb FLC 3, UCH37 inh 1.8, LANA-H2B inh -3.6, Beta2AR agonist -3, Beta cell apopt -4, T cruzi inh -14 and RanGTP-Imp inh -3.3.
For CCCCn1c(N)c(N(C(=O)CSc2nnc(C)n2-c2ccccc2)C2CCCC2)c(=O)[nH]c1=O the results were A1 inh -0.6, UCH37 inh 0.6, LANA-H2B inh 4.2, Beta2AR agonist -3 and Beta cell apopt -2.
For CCNC(=O)Nn1c(-c2ccccc2)nc2ccccc2c1=O the results were A1 inh -0.5, Calb FLC -6, UCH37 inh 1.7, LANA-H2B inh 1.8, Beta2AR agonist -4, Beta cell apopt -4 and RanGTP-Imp inh -2.8.
`CCN(CC(=O)Nc1c(F)cccc1F)C(=O)CSCC(=O)Nc1ccc(OC)cc1` gave A1 inh -0.1, Calb FLC 11, UCH37 inh 0.7, LANA-H2B inh 15, Beta2AR agonist 0, Beta cell apopt -7, T cruzi inh -8 and RanGTP-Imp inh 3.5.
For O=C(COC(=O)c1ccc(Cl)c(S(=O)(=O)N2CCOCC2)c1)Nc1ccc2[nH]c(=O)[nH]c2c1 the results were A1 inh 0.3, UCH37 inh 0.5, LANA-H2B inh 3.3, Beta2AR agonist 5 and Beta cell apopt 0.
COc1ccc(CNC(=O)CSc2nn3c(=O)c(C(C)(C)C)nnc3s2)cc1OC was read as A1 inh 1.2, Calb FLC 32, UCH37 inh 3.5, LANA-H2B inh 2.1, Beta2AR agonist 1, Beta cell apopt 2, T cruzi inh 24 and RanGTP-Imp inh 8.0.
For O=C(Cc1ccc(Cl)cc1)OCc1nnc(-c2ccccc2)o1 the results were A1 inh -1.8, Calb FLC -4, UCH37 inh 1.8, LANA-H2B inh -9.4, Beta2AR agonist 9, Beta cell apopt 1, T cruzi inh -14 and RanGTP-Imp inh -3.2.
Screening Cc1cccn2c(=O)c3cc(S(=O)(=O)c4ccc(Br)cc4)c(=N)n(C4CCCCC4)c3nc12 returned A1 inh -0.8, Calb FLC -4, UCH37 inh 4.6, LANA-H2B inh 3.6, Beta2AR agonist -1, Beta cell apopt 1, T cruzi inh 4 and RanGTP-Imp inh 0.8.
Screening Cc1ccc(CS(=O)Cc2ccc(C(=O)NC3CCCCC3)o2)cc1 (stereo unspecified) returned A1 inh 0.5, Calb FLC 15, UCH37 inh 1.5, LANA-H2B inh 3.3, Beta2AR agonist 11, Beta cell apopt -12, T cruzi inh 5 and RanGTP-Imp inh 2.6.
`COc1ccc(-n2cnnc2SCC(=O)c2cc(C)n(Cc3cccs3)c2C)cc1` gave A1 inh -0.6, Calb FLC -1, UCH37 inh 1.6, LANA-H2B inh 2.5, Beta2AR agonist -8, Beta cell apopt -10, T cruzi inh 9 and RanGTP-Imp inh -1.0.
O=C(NCc1ccco1)c1cc(-c2ccc(Cl)cc2)on1 was read as A1 inh -1.5, Calb FLC 29, UCH37 inh 3.1, LANA-H2B inh -3.3, Beta2AR agonist -6, Beta cell apopt 0, T cruzi inh -5 and RanGTP-Imp inh -1.7.
Screening CNC(=O)NC1CCCCc2sccc21 (stereo unspecified) returned A1 inh -0.2, Calb FLC -11, UCH37 inh 2.7, LANA-H2B inh 3.6, Beta2AR agonist -1, Beta cell apopt 0, T cruzi inh 0 and RanGTP-Imp inh -2.1.
O=C(O)Cn1c(SCCOc2ccccc2)nc2ccccc21 was read as A1 inh 0.8, Calb FLC 7, UCH37 inh 2.0, LANA-H2B inh 3.4, Beta2AR agonist 1, Beta cell apopt -2, T cruzi inh -7 and RanGTP-Imp inh -2.6.
CC1C/C(=N\NC(N)=S)c2cc(Cl)ccc2S1 (stereo unspecified) was read as A1 inh -0.4, Calb FLC -9, LANA-H2B inh -1.1, Beta2AR agonist 2, Beta cell apopt 12, T cruzi inh 29 and RanGTP-Imp inh 6.7.
For O=C(O)[C@@H]1Cc2c([nH]c3ccccc23)C2CCC(=O)N21 (stereo partly specified) the results were A1 inh 0.0, Calb FLC -11, UCH37 inh -31, LANA-H2B inh 2.0, Beta2AR agonist 4, Beta cell apopt -3, T cruzi inh -8 and RanGTP-Imp inh 0.6.
For CS(=O)(=O)NNC(=O)Cn1nnc(-c2ccc(OCc3ccccc3Cl)cc2)n1 the results were A1 inh -0.5, Calb FLC 20, UCH37 inh 3.0, LANA-H2B inh -0.2, Beta2AR agonist 2, Beta cell apopt -6, T cruzi inh 1 and RanGTP-Imp inh 2.9.
`Cc1cccnc1NC(=O)CSc1nnc(CNC(=O)c2cccc([N+](=O)[O-])c2)n1C` gave A1 inh -0.1, Calb FLC -1, UCH37 inh -0.6, LANA-H2B inh 12, Beta2AR agonist 1, Beta cell apopt -3, T cruzi inh 0 and RanGTP-Imp inh -3.4.
Screening CCOC(=O)CCC(=O)N1CCOCCOCCN(C(=O)CCC(=O)OCC)CCOCC1 returned A1 inh 1.2, Calb FLC 5, UCH37 inh 5.1, LANA-H2B inh -2.5, Beta2AR agonist 5, Beta cell apopt -1, T cruzi inh -7 and RanGTP-Imp inh 1.5.
For O=C(CC12CC3CC(CC(C3)C1)C2)Nc1ccc2c(c1)COC2=O the results were A1 inh 0.5, Calb FLC -11, UCH37 inh 2.0, LANA-H2B inh -0.1, Beta2AR agonist -21, Beta cell apopt -2, T cruzi inh 10 and RanGTP-Imp inh -0.3.
For O=S1(=O)NC2c3ccccc3CC2O1 (stereo unspecified) the results were A1 inh 1.2, Calb FLC -8, UCH37 inh 5.8, LANA-H2B inh -1.3, Beta2AR agonist -4, Beta cell apopt -10, T cruzi inh -12 and RanGTP-Imp inh 1.0.
Screening CC1=CC=CC2=NC(=O)CC(C)(C(=O)N(CC(=O)NC3CCCC3)c3ccccc3C)N12 (stereo unspecified) returned A1 inh -0.8, Calb FLC -7, UCH37 inh -379, LANA-H2B inh 0.4, Beta2AR agonist -3, Beta cell apopt -2, T cruzi inh -10 and RanGTP-Imp inh -5.0.
COc1ccc(CN2CCn3nc(C(=O)NC4CC4)cc3C2=O)cc1 was read as A1 inh -0.3, Calb FLC 26, UCH37 inh 2.4, LANA-H2B inh -1.5, Beta2AR agonist 7, Beta cell apopt -6, T cruzi inh 2 and RanGTP-Imp inh 2.0.
`Cc1c(C(=O)OC(C)C)sc(N)c1C(=O)OC(C)C` gave A1 inh -0.1, Calb FLC -2, UCH37 inh -1.1, LANA-H2B inh 0.3, Beta2AR agonist -3, Beta cell apopt -1, T cruzi inh 14 and RanGTP-Imp inh 0.8.
`COCCNC(=O)c1ccccc1N(Cc1ccccc1)S(=O)(=O)c1ccccc1` gave A1 inh 0.6, Calb FLC 25, UCH37 inh 2.0, LANA-H2B inh 2.6, Beta2AR agonist -2, Beta cell apopt -10, T cruzi inh 4 and RanGTP-Imp inh 4.5.
COc1ccc([N+](=O)[O-])cc1NS(=O)(=O)Cc1ccccc1 was read as A1 inh -0.3, Calb FLC 3, UCH37 inh 7.9, LANA-H2B inh 1.1, Beta2AR agonist -9, Beta cell apopt -3, T cruzi inh -2 and RanGTP-Imp inh -1.9.
`COc1ccc(OCCN(C)C(=O)c2cccc(S(=O)(=O)N(C)c3ccccc3)c2)cc1` gave A1 inh 0.1, UCH37 inh 5.3, LANA-H2B inh -3.1, Beta2AR agonist 3 and Beta cell apopt 2.

Assay outcomes as filed in PubChem BioAssay.
